Source: PubChem BioAssay
ugtP null kill: growth inhibition of ugtP-null S. aureus, primary screen, RN4220 ugtP deletion, OD600. actives 0.54% (n = 330,000). AID 1259309, 2017. growth inhibition, % (test concentration not listed). 16 h; some inactives read as strong as hits;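 active = z-score under -3 and OD600 up to 0.15 on both plates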;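 note: plate controls were untreated wells for no effect and antibiotic for full effect; wells of about 80 µL received 100 nL stock; the first replicate is given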
Autofluor counter: counter-screen for toxin protease inhibitors: compound fluorescence. fluorescence intensity (no concentration beside the values). actives 3.1% (n = 360,000). AID 624483. compound autofluorescence counterscreen, microsphere flow cytometry; active compounds read high;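 active = at least 3 SD above the mean of all compounds, about 16000 in these data; inconclusive = too few beads counted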;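 note: 100 nL of 1 mM stock went into each well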
Mtb hypoxia inh: PubChem AID 1159583; M. tuberculosis hypoxia-regulated fluorescent reporter, fluorescence; fluorescence inhibition, % (no concentration beside the values); actives 0.1% (n = 300,000);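 active = 35 to 45% if threefold the growth effect, above 45% if 1.5-fold the growth effect; inactive = the rest, general growth blockers included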;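 note: wells of about 50 µL received 100 nL stock; 0% = vehicle wells and 100% = reference inhibitor wells; whole bacteria with a GFP reporter of the hypoxia response; strong numbers were not always called active; many hits fall short of the cut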
PrP 5UTR inh: inhibition of PrP 5' UTR reporter expression | cell-based PrP 5' UTR mRNA reporter, plate reader | inhibition, % (no concentration beside the values) | actives 0.35% (n = 340,000);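 active = every replicate at 50% or more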;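 note: 0 = median of the neutral control wells; tested in H4 reporter cells; numbers are from one replicate; inactives centre near -14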
BJeLR viability: MLPCN primary cell-based screen for lethality selective to Ras in HRASV12 cells; BJeLR (HRASV12) viability, CellTiter-Glo ATP luminescence, 48 h; reference of the scale not given here; inhibition, % (no concentration beside the values); actives 0.17% (n = 300,000); AID 1554, 2009;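 active = replicate mean above 50%; inconclusive = above 50% but judged a plate artefact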;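 note: 50 nL library stock added to about 25 µL; numbers are from one replicate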
RN4220 kill: growth inhibition of S. aureus RN4220, primary screen, OD600; 16 h; inhibition, % (concentration not given with the values); actives 0.33% (n = 330,000); AID 1259311, 2017;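 active = z-score of -3 or lower and OD600 up to 0.18 on both plates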;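 note: plate controls were untreated cells for no effect and reference antibiotic for full effect; stock transfer was 100 nL into about 80 µL; one replicate is shown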
Mtb hypoxia inh growth: second read-out of Mtb hypoxia inh, no call of its own (marks repeat the call); growth inhibition, %; measured here: M. tuberculosis growth (absorbance);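 0% = vehicle and 100% = reference antibiotic; read after six days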
The depositor's hits bear a star; u = inconclusive; x = no result given.

SMILES	ugtP null kill	Autofluor counter	Mtb hypoxia inh	Mtb hypoxia inh growth	PrP 5UTR inh	BJeLR viability	RN4220 kill
Cn1c(/C=C/c2ccc(Cl)cc2Cl)c([N+](=O)[O-])c(=O)n(C)c1=O	-5	3956	6	9	-9	-4	2.4
CCn1cc(C=NNC(=O)c2ccc3c(c2)OCO3)cn1	-2	x	4	6	x	x	7.5
CC(=O)N(C)c1ccc(NC(=O)C(F)(F)F)cc1	6	4193	7	5	-9	-10	5.1
Clc1ccc(COc2ccccn2)cc1Cl	-2	5353	x	x	1	-12	1.5
Cc1ccc(F)cc1CNC(=O)C1CCC(=O)N(C2CC2)C1 (stereo not drawn)	13	3995	4	-7	-19	8	4.1
CCC(CC)C(=O)Nc1nnc(S(=O)(=O)N2CCCC2)s1	5	6177	7	10	-1	3	-0.3
COc1ccc2c(CCNC(=O)c3ccco3)c[nH]c2c1	-6	5660	2	10	4	-8	4.3
O=C(c1cc(-c2cccc(O)c2)on1)N1CCCC1	-5	5440	-2	-1	-68	7	-5.4
CN(C)c1ccc([N+](=O)[O-])cc1C(=O)O	7	10367	10	12	-23	5	2.5
Cc1ccc(NCc2nnc(SCCN3CCCCC3)n2CC2CCCO2)cc1Cl (stereo not drawn)	3	3269	13	10	-19	3	0.0
COc1ccccc1N1CCN(C(=O)Nc2ccc([N+](=O)[O-])cc2)CC1	4	2004	6	3	-12	-2	4.8
O=C(NC(C(=O)N/N=C/c1cccc2ccccc12)c1n[nH]c(=O)c2ccccc12)c1ccccc1 (stereo not drawn)	x	3180	x	x	-26	4	x
COc1cccc(N2C(C(C)=O)=NN(c3ccccc3)C2c2ccc(N3CCOCC3)cc2)c1 (stereo not drawn)	x	4485	x	x	-29	9	x
Cc1cc(C)c2nc(NNC(=O)c3ccc(S(=O)(=O)N4CCc5ccccc5C4)cc3)sc2c1	-20	6303	7	4	17	17	-3.2
CCOC(=O)c1cnc(SC)nc1N1CCCC1	2	3269	-6	-9	-7	4	-1.0
CC(C(=O)Nc1ccc2c(c1)OCCO2)N1CCN(C(=O)c2ccco2)CC1 (stereo not drawn)	-3	2549	x	x	-9	-8	-2.7
Cc1cccc(CCNC(=O)C2CCCN(c3cnccn3)C2)c1 (stereo not drawn)	6	4158	7	3	-14	-5	3.7
COc1cc(/C=N/NC(=O)c2ccncc2)ccc1Oc1ccc([N+](=O)[O-])cn1	x	2217	x	x	-25	2	x
Cc1ccc(C(=O)N/N=C/c2c[nH]c3ccccc23)o1	x	5394	x	x	-2	-8	x
Cc1ccccc1S(=O)(=O)Nc1nc2ccccc2nc1N1CCOCC1	-8	2542	x	x	-22	0	5.3
C=C(C)C1CC=C(C)/C(=N/NC(=O)CNc2ccc(OCC)cc2)C1 (stereo not drawn)	x	21006*	x	x	-11	-7	x
COC(=O)c1ccc(NC(=S)NC2CCCCC2C)cc1 (stereo not drawn)	-12	2191	7	5	3	-2	6.4
O=C(Nc1cccnc1)c1ccc2c(c1)OCO2	-2	5981	11	19	-41	6	3.5
CCC1(c2ccc(F)cc2)NC(=O)N(CC(=O)N2CCN(C(=O)c3ccco3)CC2)C1=O (stereo not drawn)	0	3974	10	5	-14	x	5.4
O=C(OCc1nc2scc(-c3ccccc3)c2c(=O)[nH]1)c1cc([N+](=O)[O-])ccc1Cl	-1	2137	-3	8	-56	7	0.6
COc1ccc(NC(=O)CSc2ccccn2)cc1	1	2755	x	x	-35	5	0.5
COc1ccc2c(c1)CCc1c(C(=O)N3CCc4ccccc4C3)noc1-2	53	21558*	7	6	-19	3	-1.9
c1ccc(-c2ccc(C3=Nn4c(Cn5nnc6ccccc65)nnc4SC3)cc2)cc1	-7	3049	1	8	-8	-5	-1.2
Cc1nnc(SCC(=O)n2c3c(c4ccccc42)CCCC3)s1	12	4554	6	14	-11	0	7.0
COc1ccc(NC(=O)c2sccc2C)c([N+](=O)[O-])c1	7	2764	x	x	-77	0	8.5
CCCNC(=O)c1cc(-c2ccc(Br)cc2)on1	-5	10387	-8	-6	-118	18	0.1
O=C(N/C(=C\c1cccc([N+](=O)[O-])c1)C(=O)N1CCCCC1)c1cccs1	-4	10837	10	2	-32	3	1.7
CCC(O)(CC)C(=O)N/N=C/c1cc(Br)cc(Br)c1O	x	4814	x	x	-7	-5	x
CCOc1ccc(-c2nnn(CC(=O)Nc3ccccc3OC)n2)cc1OCC	-2	8050	15	3	-26	13	7.4
CN(CC(=O)Nc1ccc(N2CCOCC2)cc1)CC(=O)Nc1ccc([N+](=O)[O-])cc1Br	1	2535	14	1	-12	-6	2.0
CN(C)c1ccc(-c2nnc(-c3cccs3)o2)cc1	9	5667	-5	0	-11	1	7.1
Cc1cccc(CCNC(=O)CCS(=O)(=O)c2cc3c(cc2Cl)NC(=O)CO3)c1	9	5202	-6	-9	-5	-11	2.3
O=C1CC(=C2c3ccccc3-c3ccccc32)C(=O)N1CCN1CCN(c2cccc(Cl)c2)CC1	-8	8948	4	6	-17	3	-0.4
Cc1nn(-c2ccccc2)c(C)c1/C=N/O	x	2401	x	x	-57	7	x
COc1ccccc1NC(=O)c1ccc2c(c1)N(CC#N)C(=O)C(C)(C)O2	-3	4047	-3	10	9	2	1.6
Cc1ccc(N(CC(=O)N2CC(=O)Nc3ccccc32)S(=O)(=O)c2ccc3c(c2)OCCO3)cc1	-4	u	-3	2	-3	-1	-3.1
CC(C)(C)c1ccc(OCC(=O)N2CCCCCC2)c(Br)c1	4	3478	7	-6	-23	2	6.7
CCOC(=O)/C(C#N)=C\C=C1C=CN(C)C=C1	13	3738	x	x	-48	-9	1.7
Cn1nc(C(C)(C)C)c([N+](=O)[O-])c1C(=O)NCCO	5	2244	-3	-3	-8	-11	6.3
Cc1oc(-c2ccccc2)cc1C(=O)Nc1ccc(N(C)C)cc1	1	2416	x	x	-31	-6	3.3
Cc1nnc(SCC(=O)N2CCN(C(=O)c3ccco3)CC2)n1C	8	4259	5	4	-11	x	4.5
CC1CCN(c2ccc3c(c2)S(=O)(=O)c2ccccc2C3=O)CC1	4	4011	1	18	-54	-10	3.8
Cc1[nH]n(-c2ccccc2)c(=O)c1/C=N/O	x	12215	x	x	-22	3	x

Look-ups from above:
Entry of Cn1nc(C(C)(C)C)c([N+](=O)[O-])c1C(=O)NCCO under RN4220 kill: 6.3
Entry of CC1CCN(c2ccc3c(c2)S(=O)(=O)c2ccccc2C3=O)CC1 under Mtb hypoxia inh growth: 18
Entry of CCOC(=O)/C(C#N)=C\C=C1C=CN(C)C=C1 under BJeLR viability: -9

(next part)
SMILES	ugtP null kill	Autofluor counter	Mtb hypoxia inh	Mtb hypoxia inh growth	PrP 5UTR inh	BJeLR viability	RN4220 kill
COc1cc(/C=C(\C#N)c2nc3ccc(C)cc3[nH]2)cc([N+](=O)[O-])c1O	-10	3356	x	x	-52	x	13
CS(=O)(=O)N1c2ccccc2[C@]2(Br)C[C@H]3C(=O)N[C@@H](Cc4ccccc4)C(=O)N3[C@H]12	x	4203	x	x	-20	6	x
CC(=O)Nc1ccc(NC(=O)C(c2ccccc2)c2ccccc2)cc1	1	3166	-4	-4	-2	2	5.0
Cc1occc1C(=O)NCc1cccs1	0	2482	4	9	-32	6	-13
COc1ccc(C2=CC3=C(Br)C(=O)C(C)(OC(=O)c4ccc(Cl)nc4)C(=O)C3=CO2)cc1 (stereo not drawn)	-15	x	10	8	x	-3	3.9
O=C(OCC(=O)N1CCN(c2ccccc2)CC1)c1nc(Cl)ccc1Cl	4	u	9	11	-4	-10	3.5
CCOC(=O)C1(C)Oc2ccccc2C(C(=O)OC)=C1C(=O)OC (stereo not drawn)	3	3466	2	4	-15	x	5.1
COCc1cc(C)n(CC(=O)Nc2cccc(C)c2)c(=O)c1C#N	9	3992	1	0	-74	3	5.6
COC(=O)c1ccc(COC(=O)c2cnccn2)cc1	7	2666	20	18	-13	-1	5.2
CSc1nc(C)cc(OCCNS(=O)(=O)c2ccc(C)cc2)n1	11	17261*	7	5	-9	0	6.4
CC1NC(=CC(=O)c2ccccc2)N(O)C1(C)C (stereo not drawn)	7	x	6	13	x	x	2.0
Cc1ccc(S(=O)(=O)N2CCCCC2)cc1NC(=O)C1CC(=O)N(Cc2ccccc2)C1 (stereo not drawn)	-9	8244	-4	4	-18	7	-6.3

Part of the list above in order of molecular weight, smallest number first.
SMILES	ugtP null kill	Autofluor counter	Mtb hypoxia inh	Mtb hypoxia inh growth	PrP 5UTR inh	BJeLR viability	RN4220 kill
CCn1cc(C=NNC(=O)c2ccc3c(c2)OCO3)cn1	-2	x	4	6	x	x	7.5
CCC(CC)C(=O)Nc1nnc(S(=O)(=O)N2CCCC2)s1	5	6177	7	10	-1	3	-0.3
O=C(NC(C(=O)N/N=C/c1cccc2ccccc12)c1n[nH]c(=O)c2ccccc12)c1ccccc1 (stereo not drawn)	x	3180	x	x	-26	4	x

Later entries.
SMILES	ugtP null kill	Autofluor counter	Mtb hypoxia inh	Mtb hypoxia inh growth	PrP 5UTR inh	BJeLR viability	RN4220 kill
Cc1cccc(Cl)c1OCCN1CCCC1	9	x	5	-6	-3	-2	3.2
O=C1CCS/C(=N\N=Cc2ccc(Cl)cc2Cl)N1	-4	x	2	-3	x	x	1.5
O=C(CN1C(=O)C2C3C=CC(C4CC34)C2C1=O)Oc1ccccc1 (stereo not drawn)	4	2597	1	2	-12	7	-0.4
CC(=NN1CCN(C2c3ccccc3-c3ccccc32)CC1)c1ccco1	-15	x	6	23	x	x	8.4
c1ccc(-c2cc(N3CCCCC3)c3ccccc3n2)cc1	15	4147	-1	4	-14	-16	9.3
COC(=O)c1ccc(CSc2nnc(-c3c[nH]c4ccccc34)n2C)o1	-6	4661	x	x	-15	-19	-7.7
Cc1ccc(NC(=O)CSc2nc(=O)n(Cc3ccncc3)c3c2CCC3)c(C)c1	1	u	4	9	0	3	2.1
CN(CC(=O)Nc1nc2ccccc2s1)S(=O)(=O)c1ccccc1	-9	4283	x	x	-44	-6	-3.5
O=C(COC(=O)c1ccc2c(c1)C(=O)N(c1cccc3ncccc13)C2=O)c1ccc(Cl)cc1	-8	1967	7	-5	8	5	9.3
O=c1c2[nH]c3ccccc3c2ncn1Cc1ccco1	-5	2782	x	x	-8	-3	6.0
COc1ccccc1OCC(=O)Nc1cccc(-c2nc3ccccc3o2)c1	-18	9362	-8	2	-15	10	9.4
CCC1=C/C(=C/N(C)c2ccccc2)C(=O)S1	11	3383	11	13	-40	-14	4.1

Single records, from the list above:
COc1ccccc1OCC(=O)Nc1cccc(-c2nc3ccccc3o2)c1 across the screens: ugtP null kill: -18; Autofluor counter: 9362; Mtb hypoxia inh: -8; Mtb hypoxia inh growth: 2; PrP 5UTR inh: -15; BJeLR viability: 10; RN4220 kill: 9.4
O=c1c2[nH]c3ccccc3c2ncn1Cc1ccco1 across the screens: ugtP null kill: -5; Autofluor counter: 2782; Mtb hypoxia inh: x; Mtb hypoxia inh growth: x; PrP 5UTR inh: -8; BJeLR viability: -3; RN4220 kill: 6.0

Further compounds follow.
SMILES	ugtP null kill	Autofluor counter	Mtb hypoxia inh	Mtb hypoxia inh growth	PrP 5UTR inh	BJeLR viability	RN4220 kill
CC(C)c1c(C(=O)NN=CC2CC=CCC2)nnn1-c1nonc1N (stereo not drawn)	8	x	5	-4	x	x	5.6
CCOC(=O)c1nn(-c2sc(C(=O)OC)c(C)c2C(=O)OC)cc1O	2	10696	8	2	-32	6	7.1
O=C(COC(=O)CNS(=O)(=O)c1c(Cl)cccc1Cl)Nc1ccccc1Sc1ccccc1	-4	9357	1	-4	-1	8	9.5
O=C(Cc1cccs1)N(c1ccc(Cl)cc1)C1C=CS(=O)(=O)C1 (stereo not drawn)	-1	11069	3	-1	-20	-14	6.9

Quoted at random: 2 entries already listed, in no set order.
SMILES	ugtP null kill	Autofluor counter	Mtb hypoxia inh	Mtb hypoxia inh growth	PrP 5UTR inh	BJeLR viability	RN4220 kill
O=C(COC(=O)CNS(=O)(=O)c1c(Cl)cccc1Cl)Nc1ccccc1Sc1ccccc1	-4	9357	1	-4	-1	8	9.5
CC(C)c1c(C(=O)NN=CC2CC=CCC2)nnn1-c1nonc1N (stereo not drawn)	8	x	5	-4	x	x	5.6
